Screening data from PubChem.
PINK1 expr mod: changes PINK1 expression; PINK1 immunofluorescence, high-content cytometry, 24 h; Potency, µM (highest dose often 76.6 µM), for inactives: at the top dose activation (PINK1 increase), hits mostly activators; 410,000 compounds, 0.2% hits; AID 624263; active = well fitted activation curve with a large enough effect; inconclusive = small, poorly fitted or top-dose-only effect; inactive = flat fitted curve, though single readings scatter; cell line not stated here;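 note: potency is the fitted concentration of half-maximal effect; % of control where 0% means no effect; nearly all actives have a fitted effect of over 65% in size; a mitochondrial uncoupler was the plate control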
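A stable cell line was treated with compounds at 5 concentrations for 24 hours, with CCCP as control. PINK1 levels and mitochondrial localization were measured by immunofluorescence with mitochondrial, cell and nuclear markers after fixation, read by laser-scanning cytometry.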
ClpP mod: qHTS Assay for Activators of ClpP; purified B. subtilis ClpP, FRET peptide cleavage, 20 min; AID 651965, 2013; 340,000 compounds, 1.9% hits; ATP-dependent Clp protease proteolytic subunit (Bacillus subtilis (strain 168)), P80244; Potency, µM (top dose mostly 57.5 µM), for inactives: at the highest dose activity change, negative = active; active = well fitted falling curve with a large enough effect; inconclusive = small, poorly fitted or top-dose-only effect; inactive = no such curve, though single readings can be large or run the other way; note: potency is the fitted concentration of half-maximal effect; the source files actives as falling curves though it sought activators and does not explain the sign; nearly all actives have a fitted effect of over 65% in size; many hits overshoot -100%
Target sequence (P80244 whole entry, looked up): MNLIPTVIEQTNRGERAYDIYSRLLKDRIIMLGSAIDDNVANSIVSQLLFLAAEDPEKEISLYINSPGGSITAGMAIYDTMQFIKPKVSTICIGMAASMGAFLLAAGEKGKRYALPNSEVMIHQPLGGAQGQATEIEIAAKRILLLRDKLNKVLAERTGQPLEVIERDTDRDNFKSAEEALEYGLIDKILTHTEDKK
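FRET quenching reversal measured ClpP activation: 10 microg/mL B. subtilis ClpP at pH 8 with the FRET-FV decapeptide, read at 430 nm after 320 nm excitation. The 20-min minus 0-min signal was scaled between DMSO/no-enzyme wells and ADEP (5.8 microM final).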
TRPV1 PAM: human TRPV1 potentiation; TRPV1-expressing cells, Fluo-8 calcium influx, capsaicin EC20 potentiation; host cell line not named in the record; control for the full effect not named in the record; Q8NER1; potentiation, % at 8.33 µM; 320,000 compounds, 0.02% hits; active means potentiation above 80%; inconclusive means 30% to 80%; inactive means below 30%; note: 0% is about no effect
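Cells expressing TRPV1 were dye-loaded with Fluo-8 and read kinetically: 10 s baseline, 3 min after compound (agonist portion), then 2 min after EC20 capsaicin (allosteric enhancer portion). Calcium-bound dye fluorescence at 480/520 nm.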
TRPML1 blocker: inhibitors of human TRPML1 channel; Q9GZU1; 390,000 compounds, 0.02% hits; activity change, negative = inhibition, % (no concentration beside the values); TRPML1-inducible cells, Ca2+ dye fluorescence, FDSS; active compounds read low; inhibition of EC80 agonist-evoked calcium signal; in the data active means activity change below about -50%; inconclusive means about -30% to -50%; inactive means above about -30%;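 note: stimulus is agonist 54-4 at its EC80 concentration; % is set by controls: 0 for no effect and ±100 for the full control effect; compound concentration not given in the record; the text of the record puts the active cut at -80%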
Target sequence (Q9GZU1 whole entry, looked up): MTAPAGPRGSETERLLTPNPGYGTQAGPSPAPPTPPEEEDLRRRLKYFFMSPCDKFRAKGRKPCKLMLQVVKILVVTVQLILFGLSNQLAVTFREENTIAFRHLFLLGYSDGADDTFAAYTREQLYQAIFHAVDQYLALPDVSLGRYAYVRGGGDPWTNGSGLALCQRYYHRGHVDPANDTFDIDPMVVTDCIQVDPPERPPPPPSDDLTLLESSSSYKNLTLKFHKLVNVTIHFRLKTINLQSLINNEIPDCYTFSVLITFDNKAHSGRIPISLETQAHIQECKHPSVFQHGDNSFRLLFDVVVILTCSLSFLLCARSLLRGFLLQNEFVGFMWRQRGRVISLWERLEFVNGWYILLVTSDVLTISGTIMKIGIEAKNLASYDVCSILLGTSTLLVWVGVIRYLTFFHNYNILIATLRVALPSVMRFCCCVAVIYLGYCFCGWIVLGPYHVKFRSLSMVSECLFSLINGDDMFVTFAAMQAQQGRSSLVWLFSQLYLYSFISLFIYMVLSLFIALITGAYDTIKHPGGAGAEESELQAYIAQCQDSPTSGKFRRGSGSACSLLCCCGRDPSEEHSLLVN
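Tet-induced TRPML1-DL cells loaded with Ca8 no-wash calcium dye were read kinetically on FDSS. Compound addition was followed by EC80 agonist 54-4 (4 uM final); inhibition was read over 110 s.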
TRPML1 agonist: human mucolipin-1 channel agonism; TRPML1-expressing cells, Ca2+ dye fluorescence, FDSS; host cell line not named in the record; reference of the full effect not given here; activation, % (no concentration beside the values); 410,000 compounds, 0.12% hits; in the data active = activation above about 50%; inconclusive = about 30% to 50%; inactive = below about 30%; note: 0% is about no effect; the text of the record puts the active cut at 80%
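Agonist activity was taken from a 110 s kinetic Ca2+ dye read on the FDSS after pinning compounds onto TRPML1-DL cells. The cells were seeded at 1,500/well with Tet inducer, incubated about 16 h, then dye-loaded at room temperature.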
Menin MLL FP FL: inhibitors of human menin-MLL interaction, wild-type MLL peptide. Fluorescence polarization, fluorescein-MLL peptide displacement from menin. FP activity change, % at 61.4 µM. 290,000 tested, under 10 active. AID 1766; inconclusive = falling polarisation curve, or a change in total fluorescence; inactive = total fluorescence flat and polarisation flat or rising; no compound was filed as active; the % refers to the polarisation; negative = inhibition;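 note: % of control where 0% means no effect; inhibitors lower the polarisation; unlabelled MLL peptide was the positive control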
Sfp inh: Sfp phosphopantetheinyl transferase inhibition. Q9F4F7. Biochemical Sfp PPTase activity, qHTS. Potency, µM, inactives show max response, negative = inhibition, hits mostly inhibitors. 310,000 compounds, 3.5% hits; active = well fitted inhibition curve with a large enough effect; inconclusive = small, poorly fitted or top-dose-only effect, or another doubt; inactive = no such curve, though single readings can be large or run the other way;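 note: the enzyme is Sfp with the accession as filed and its product quenches rhodamine fluorescence; potency is the fitted concentration of half-maximal effect; 0% = enzyme reaction without inhibitor and -100% = no enzyme wells; top concentration of the series not given in the record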
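Fluorescence-quenching assay: 15 nM Sfp-PPTase preincubated 15 min at room temperature with compound, then 5 uM rhodamine-CoA and 12.5 uM BHQ-2-labelled YbbR peptide added. Fluorescence (ex 525/em 598 nm) read at start and after 30 min; difference gives rate.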
Numbers without * were called inactive; [ ] = another dose, or the depositor's remark. Random draw from the library; any-hit rate near 4.4%.

What do the screens show for `O=C(CCCc1ccccc1)Nc1cccnc1Cl`?
PINK1 expr mod: 1.2%; TRPV1 PAM: 0; TRPML1 blocker: 3; TRPML1 agonist: -0.2; Menin MLL FP FL: inconclusive; Sfp inh: 16%

What do the screens show for `COc1ccc(C(=O)Nc2ccc3nc(SCc4ccc(C)cc4)sc3c2)cc1`?
PINK1 expr mod: 7.8%; ClpP mod: 25µM*; TRPML1 blocker: 17; TRPML1 agonist: -0.5

Results for COc1cccc(-n2nnnc2SCC(=O)NCCc2ccccc2)c1 ?
PINK1 expr mod: 1.7%; ClpP mod: 7.6%; TRPV1 PAM: -7; TRPML1 blocker: 0; TRPML1 agonist: 0.3; Menin MLL FP FL: 1.8; Sfp inh: 11%

How did NC(=O)C(=O)NN=C1C2CC3CC(C2)CC1C3 do in these assays?
PINK1 expr mod: 2.4%; TRPV1 PAM: -8; TRPML1 blocker: 7; TRPML1 agonist: 0.0; Menin MLL FP FL: -0.3; Sfp inh: 12%

How did COc1ccccc1CN1CC(C(=O)N(CCO)Cc2cccs2)CCC1=O (configuration not stated) do in these assays?
PINK1 expr mod: -1.1%; ClpP mod: -1.8%; TRPV1 PAM: -18; TRPML1 blocker: -16; TRPML1 agonist: 0.3; Sfp inh: 19%

Results for c1ccc(CSCc2nc3ccccc3[nH]2)cc1 ?
PINK1 expr mod: 0.3%; ClpP mod: 2.2%; TRPV1 PAM: -23; TRPML1 blocker: -3; TRPML1 agonist: -0.5; Menin MLL FP FL: 5.5; Sfp inh: 0%

Results for CCc1noc2c1/C(=N\O)CC(c1ccccc1)C2 (configuration not stated) ?
PINK1 expr mod: 3.1%; ClpP mod: -4.2%; TRPV1 PAM: -23; TRPML1 blocker: 28; TRPML1 agonist: 3.4; Menin MLL FP FL: 2.3; Sfp inh: 17%

Results for C=CCn1c(N)c(S(=O)(=O)c2cccs2)c2nc3ccccc3nc21 ?
PINK1 expr mod: -1.1%; ClpP mod: 0.3%; TRPV1 PAM: 24; TRPML1 blocker: 72; TRPML1 agonist: -1.4; Menin MLL FP FL: 3.8; Sfp inh: -9%

What do the screens show for `Cc1ccc(C2C(C#N)=C(N)Oc3c2oc(CO)cc3=O)o1` (configuration not stated)?
PINK1 expr mod: 0.1%; ClpP mod: 0.7%; TRPV1 PAM: -25; TRPML1 blocker: 15; TRPML1 agonist: -0.6; Menin MLL FP FL: inconclusive; Sfp inh: inconclusive

What do the screens show for `CC(C)c1ccc(NC(=O)c2ccc(NC(=O)CCS(=O)(=O)c3cccs3)cc2)cc1`?
PINK1 expr mod: 2.3%; ClpP mod: -8.3%; TRPML1 blocker: 3; TRPML1 agonist: 0.0

What do the screens show for `O=C(c1ccc(Cl)c([N+](=O)[O-])c1)N(Cc1ccccc1)C1CCS(=O)(=O)C1` (configuration not stated)?
PINK1 expr mod: 4.3%; ClpP mod: 2.0%; TRPV1 PAM: 3; TRPML1 blocker: 12; TRPML1 agonist: -0.7; Menin MLL FP FL: -0.1; Sfp inh: 18%

How did Cc1ccc(S(=O)(=O)N2CCOCC2)cc1NC(=O)CNCC1CCCCC1 do in these assays?
PINK1 expr mod: -0.6%; ClpP mod: 0.0%; TRPV1 PAM: 8; TRPML1 blocker: 15; TRPML1 agonist: -0.1; Menin MLL FP FL: -0.3; Sfp inh: -10%

What do the screens show for `COc1ccc(C=NC(CO)C(O)c2ccc([N+](=O)[O-])cc2)cc1` (configuration not stated)?
PINK1 expr mod: -1.4%; ClpP mod: 15%; TRPML1 blocker: -5; TRPML1 agonist: 1.0; Menin MLL FP FL: 1.3; Sfp inh: -10%

How did COc1ccc(-c2cc(C(=O)OC(C)C(=O)Nc3c(C)n(C)n(-c4ccccc4)c3=O)c3ccccc3n2)cc1 (configuration not stated) do in these assays?
PINK1 expr mod: 0.3%; ClpP mod: -11%; TRPV1 PAM: 25; TRPML1 blocker: -8; TRPML1 agonist: 2.2; Menin MLL FP FL: 5.4; Sfp inh: 13%

What do the screens show for `O=c1c2c(nc3nc(CCc4ccccc4)[nH]n13)CCC2`?
PINK1 expr mod: -1.3%; ClpP mod: 1.2%; TRPV1 PAM: 2; TRPML1 blocker: -4; TRPML1 agonist: 1.0; Menin MLL FP FL: 1.0; Sfp inh: 14%

What do the screens show for `COc1cc(OC)c(/C=N/NC(=O)Cn2nc([N+](=O)[O-])cc2C)c(OC)c1`?
PINK1 expr mod: 0.3%; ClpP mod: 0.5%; TRPV1 PAM: -1; TRPML1 blocker: -3; TRPML1 agonist: 0.7; Menin MLL FP FL: 1.0; Sfp inh: -11%

Results for O=C(/C=C/c1ccco1)Nc1ccc(Oc2ccccc2)cc1 ?
PINK1 expr mod: 3.7%; ClpP mod: -1.5%; TRPV1 PAM: -1; TRPML1 blocker: 2; TRPML1 agonist: 1.0; Menin MLL FP FL: 6.4; Sfp inh: 2%

How did COc1ccc(S(=O)(=O)N(C)CC(=O)Nc2ccc(C)cc2)cc1OC do in these assays?
PINK1 expr mod: 1.7%; ClpP mod: -0.5%; TRPV1 PAM: -5; TRPML1 blocker: -16; TRPML1 agonist: 0.1; Menin MLL FP FL: 0.3; Sfp inh: 14%

How did Cc1ccc(C(=O)CSc2cc(C)[nH]c(=O)n2)cc1 do in these assays?
PINK1 expr mod: 0.8%; ClpP mod: -0.6%; TRPV1 PAM: -14; TRPML1 blocker: 1; TRPML1 agonist: -0.1; Sfp inh: -21%

How did COC(=O)Cn1c(C2CC(=O)N(c3c(C)cccc3C)C2)nc2ccccc21 (configuration not stated) do in these assays?
PINK1 expr mod: 0.0%; ClpP mod: 0.1%; TRPML1 blocker: 23; TRPML1 agonist: -1.2

For convenience, some entries already given.
Results for C=CCn1c(N)c(S(=O)(=O)c2cccs2)c2nc3ccccc3nc21 ?
PINK1 expr mod: -1.1%; ClpP mod: 0.3%; TRPV1 PAM: 24; TRPML1 blocker: 72; TRPML1 agonist: -1.4; Menin MLL FP FL: 3.8; Sfp inh: -9%

What do the screens show for `Cc1ccc(C2C(C#N)=C(N)Oc3c2oc(CO)cc3=O)o1` (configuration not stated)?
PINK1 expr mod: 0.1%; ClpP mod: 0.7%; TRPV1 PAM: -25; TRPML1 blocker: 15; TRPML1 agonist: -0.6; Menin MLL FP FL: inconclusive; Sfp inh: inconclusive

What do the screens show for `CC(C)c1ccc(NC(=O)c2ccc(NC(=O)CCS(=O)(=O)c3cccs3)cc2)cc1`?
PINK1 expr mod: 2.3%; ClpP mod: -8.3%; TRPML1 blocker: 3; TRPML1 agonist: 0.0

New compounds follow.
Results for O=C(NCC(=O)N1CCN(c2ccccc2O)CC1)C1CCCCC1 ?
PINK1 expr mod: 0.4%; ClpP mod: -1.8%; TRPV1 PAM: 13; TRPML1 blocker: 13; TRPML1 agonist: -0.3

How did Cc1ccc(C)c(S(=O)(=O)N2CCC3(CC2)OCCN3S(=O)(=O)c2cccs2)c1 do in these assays?
PINK1 expr mod: -1.9%; TRPV1 PAM: -14; TRPML1 blocker: 82; TRPML1 agonist: 0.7

How did Cc1cc(C)cc(NC(=O)c2ccc(S(=O)(=O)C(F)F)cc2)c1 do in these assays?
PINK1 expr mod: -0.6%; ClpP mod: -3.4%; TRPV1 PAM: -2; TRPML1 blocker: 7; TRPML1 agonist: 1.3; Menin MLL FP FL: -0.2; Sfp inh: 21%

How did CCOC(=O)C(/C(C)=N/NC(=O)C1CC1c1ccccc1)C(C)C (configuration not stated) do in these assays?
PINK1 expr mod: 1.6%; ClpP mod: -2.2%; TRPV1 PAM: 2; TRPML1 blocker: -1; TRPML1 agonist: 2.0; Menin MLL FP FL: inconclusive; Sfp inh: -8%

How did CSc1nc2nc(-c3ccccc3)cc(C(F)(F)F)n2n1 do in these assays?
PINK1 expr mod: -1.4%; ClpP mod: -29%; TRPV1 PAM: 0; TRPML1 blocker: -4; TRPML1 agonist: 0.2; Menin MLL FP FL: 6.2; Sfp inh: -3%

What do the screens show for `Cc1c(OCC(=O)NCCCN2CCOCC2)ccc2c(-c3ccccc3)cc(=O)oc12`?
PINK1 expr mod: -0.7%; ClpP mod: -4.9%; TRPV1 PAM: -1; TRPML1 blocker: -2; TRPML1 agonist: -0.7; Menin MLL FP FL: 0.2; Sfp inh: 3%

Results for CCOC(=O)c1sc2nc3c(cc2c1N)C(=O)CC(C)(C)C3 ?
PINK1 expr mod: 10%; ClpP mod: 1.1%; TRPV1 PAM: -4; TRPML1 blocker: 0; TRPML1 agonist: -0.4; Menin MLL FP FL: -0.8; Sfp inh: -17%

How did O=C(COC(=O)COc1ccccc1[N+](=O)[O-])NC1CCCC1 do in these assays?
PINK1 expr mod: -1.2%; ClpP mod: 2.0%; TRPV1 PAM: -3; TRPML1 blocker: 5; TRPML1 agonist: -0.9; Menin MLL FP FL: 6.3; Sfp inh: 7%

Results for CNC(=O)C1CCC(Cn2c(=O)c3sccc3n(CC(=O)NCc3ccc(OC)cc3)c2=O)CC1 (configuration not stated) ?
PINK1 expr mod: 3.6%; ClpP mod: 2.3%; TRPML1 blocker: -13; TRPML1 agonist: -0.4

How did CCNc1nc(NCC)nc(-n2nc(C)cc2C)n1 do in these assays?
PINK1 expr mod: 0.1%[38.3 µM]; ClpP mod: 0.6%; TRPV1 PAM: 14; TRPML1 blocker: -2; TRPML1 agonist: -0.6; Menin MLL FP FL: -4.0; Sfp inh: 16%

Results for COc1ccc(CC(N)c2csc(NC(=O)NCCc3ccc(OC)c(OC)c3)n2)cc1 (configuration not stated) ?
PINK1 expr mod: 3.3%; ClpP mod: 0.0%; TRPML1 agonist: -0.3

How did OCCN(Cc1ccccc1)CC1CCCCC1 do in these assays?
PINK1 expr mod: 4.1%[38.3 µM]; ClpP mod: 0.1%; TRPV1 PAM: -14; TRPML1 blocker: -9; TRPML1 agonist: -0.7; Menin MLL FP FL: -7.2; Sfp inh: -20%

How did CCN(C(=O)CSc1nnc(-c2ccccc2Cl)n1C1CCCC1)C1CCS(=O)(=O)C1 (configuration not stated) do in these assays?
PINK1 expr mod: 1.3%; ClpP mod: 0.1%; TRPV1 PAM: -22; TRPML1 blocker: 2; TRPML1 agonist: 0.4; Menin MLL FP FL: 2.8; Sfp inh: -4%
